PABP FP inh: PABP-poly(A) binding inhibition | P11940 | PABP-poly(A) RNA binding, fluorescence polarization | inhibition, % at 35 µM | hit rate 1% among 290,000;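 active means 50% or more with normal probe brightness, or confirmed in later tests; inconclusive means above 50% with abnormal brightness, or retests that disagree; inactive means below 50% or failed in later tests; about a fifth of its hits are not listed in these tables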;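 further: calls also rest on retests at 20 µM and on dose response follow-up; controls were probe without protein and protein plus probe with vehicle; some compounds called inactive have numbers as strong as hits; many hits fall short of the cut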
Target sequence (P11940 whole entry, looked up): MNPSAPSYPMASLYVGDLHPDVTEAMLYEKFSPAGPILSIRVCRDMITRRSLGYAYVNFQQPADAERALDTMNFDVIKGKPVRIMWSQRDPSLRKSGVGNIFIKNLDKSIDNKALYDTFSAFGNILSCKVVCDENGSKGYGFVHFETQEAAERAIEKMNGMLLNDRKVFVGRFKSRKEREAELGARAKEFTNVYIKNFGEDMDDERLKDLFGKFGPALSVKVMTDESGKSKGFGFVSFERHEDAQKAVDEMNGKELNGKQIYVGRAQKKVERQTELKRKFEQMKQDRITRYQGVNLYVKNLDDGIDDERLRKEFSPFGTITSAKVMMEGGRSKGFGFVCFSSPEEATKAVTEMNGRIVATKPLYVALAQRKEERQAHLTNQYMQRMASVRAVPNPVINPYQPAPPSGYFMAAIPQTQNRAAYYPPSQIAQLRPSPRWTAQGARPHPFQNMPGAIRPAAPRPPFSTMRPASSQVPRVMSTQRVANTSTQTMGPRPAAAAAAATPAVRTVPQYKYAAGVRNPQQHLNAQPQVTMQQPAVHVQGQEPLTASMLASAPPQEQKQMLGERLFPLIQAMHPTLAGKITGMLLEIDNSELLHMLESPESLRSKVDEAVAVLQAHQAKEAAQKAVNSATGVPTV
HIV Env fusion: blocks HIV Env-driven cell-cell fusion. HeLa-JRFL Env/CEM21 cell fusion, luciferase. inhibition, % at 12.3 µM. hit rate 1.1% among 360,000;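 active means mean replicate inhibition score of at least 50 and every replicate individually at or above 50; inconclusive means only one of the two criteria met; inactive means mean below 50 and not all replicates reaching 50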;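 further: 0% = plate neutral controls and 100% = maraviroc near 300 nM; one replicate is shown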
MT1-MMP act inh: inhibitors of human MT1-MMP activation; P50281; HT1080 RFP-PRO-GFP cells, GFP/RFP ratio fluorescence, overnight; percent of plate control window, DMSO zero; GFP/RFP ratio change, % at 20 µM; hit rate 0.061% among 360,000;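 active means GFP/RFP ratio change of at least 30% with cell ATP level not reduced by more than half and red fluorescence within 50% of control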; further: strong numbers were not always called active
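Compound: 20 µM single dose, 1% DMSO / System: HT1080 RFP-PRO-GFP cells / Controls: DMSO and RFP-L50D-GFP cell wells / Read-out basis: GFP/RFP fluorescence ratio / Schedule: overnight compound exposure at 37 °C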
eIF4H inh: inhibitors of RNA binding by human eIF4H | eIF4H fluorescence polarization binding assay | inhibition, % at 35 µM | hit rate 0.94% among 290,000;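 active means 50% or more with normal probe brightness, or confirmed in later tests; inconclusive means above 50% with abnormal brightness, or retests that disagree; inactive means below 50% or failed in later tests; about a fifth of its hits are not listed in these tables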;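 further: calls also rest on retests at 20 µM and on dose response follow-up; 0% = protein and probe with vehicle and 100% = probe without protein; strong numbers were not always called active; many hits fall short of the cut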
Yeast UUG start: yeast start codon fidelity modulation; hit rate 0.13% among 350,000; activity score, % at 18.7 µM; S. cerevisiae UUG-firefly luciferase reporter, luminescence/redox ratio; AID 602363;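 active means replicate mean at a twofold rise or more, about +100% in these data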;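 further: firefly luciferase made from a UUG start codon reports start codon fidelity; reporter light over untreated wells divided by growth signal over untreated wells; some hits fall short of that in this replicate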
Rce1 inhib: yeast Ras-converting enzyme inhibition; Q03530; yeast membranes, quenched prenylated peptide cleavage fluorescence; calls only; hit rate 0.27% among 290,000;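 active means fall in fluorescence gain of 50% or more versus controls, with final raw signal at or below 3038400; inconclusive means same 50% fall but final raw signal above 3038400; inactive means fall in fluorescence gain under 50%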;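 further: plate controls were neutral control wells for no effect and wells lacking membranes for full effect; tested at 10 µM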
Target sequence (Q03530 whole entry, looked up): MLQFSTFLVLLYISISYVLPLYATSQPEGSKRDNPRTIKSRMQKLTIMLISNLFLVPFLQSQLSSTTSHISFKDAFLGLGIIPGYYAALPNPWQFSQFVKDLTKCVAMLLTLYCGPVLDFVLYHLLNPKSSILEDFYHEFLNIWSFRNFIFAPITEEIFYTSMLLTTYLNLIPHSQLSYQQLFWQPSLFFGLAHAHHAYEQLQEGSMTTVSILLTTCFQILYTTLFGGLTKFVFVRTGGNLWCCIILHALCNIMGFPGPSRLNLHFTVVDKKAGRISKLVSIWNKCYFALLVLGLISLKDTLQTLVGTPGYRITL
CSC inhib: blocks cancer stem cells | cancer stem cell-like cells viability, luminescence | inhibition, % at 7.5 µM | hit rate 1.1% among 300,000 | AID 2717;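 active means mean at 75% or more and at least half the replicates too; inconclusive means mean and replicates disagree; tested in HMLE shEcad cells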;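 further: 0% = median of negative and 100% = median of positive control wells; the first replicate is given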
MT1-MMP act inh RFP: also measured in MT1-MMP act inh; calls as there; RFP signal change, %; measured here: RFP expression control read;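 0 = vehicle wells; hits needed this value within 50% of zero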
An asterisk follows results filed as active; i = inactive; ? = inconclusive; . = not tested or not shown.

1	Cc1ccc(OCCn2c(SCCO)nc3c(N)ncnc32)cc1
2	CC(Sc1nnc2n1CCCCC2)C(=O)Nc1ccc(S(N)(=O)=O)cc1 (configuration not stated)
3	COC(=O)c1c(NC(=O)CC2Nc3ccccc3NC2=O)sc(C)c1C (configuration not stated)
4	CCCC(=O)C1=C(O)C(C(=O)OC)C(C)(C)CC1=Nc1ccc(Br)cc1 (configuration not stated)
5	COc1ccc(C(=S)N2CCOCC2)cc1OC(=O)c1cc(OC)c(OC)c(OC)c1
6	CCc1cccc(C)c1NS(=O)(=O)c1cccs1
7	Cc1ccc(S(=O)(=O)N2CCCC(C(=O)NCC3CCCO3)C2)cc1 (configuration not stated)
8	CCn1cc(C(=O)OCC(=O)Nc2c(C)cccc2C)c(=O)c2ccc(C)nc21

Compound	1	2	3	4	5	6	7	8
PABP FP inh	4	.	?	1	9	-4	2	-12
HIV Env fusion	3	18	.	-2	1	-13	-13	12
MT1-MMP act inh	-2	-3	-5	-5	5	0	-2	3
MT1-MMP act inh RFP	-19	1	6	-6	3	0	-3	-1
eIF4H inh	15	.	?	3	8	-4	0	-7
Yeast UUG start	-21	-16	-9	.	-11	-4	2	.
Rce1 inhib	i	.	i	i	i	i	i	i
CSC inhib	-1	.	8	-5	0	-8	-3	5

9	O=C(N/N=C/C=C/c1cccc([N+](=O)[O-])c1)C(O)c1ccccc1 (configuration not stated)
10	COC(=O)c1c(NC(=O)COC(=O)Cn2cnc3ccccc32)sc(C)c1C
11	CC(=O)Nc1ccc(S(=O)(=O)NNC(=O)c2ccc([N+](=O)[O-])cc2)cc1
12	COc1cc2[nH]c(=O)n(CCCC(=O)NCCc3ccccc3)c(=O)c2cc1OC
13	CN1C(=O)C(O)(CC(=O)c2cccnc2)c2ccccc21 (configuration not stated)
14	O=S(=O)(NCCOc1ccccc1Cl)c1ccc2oc3ccccc3c2c1
15	COc1ccc(C(=O)Nc2cc3c(cc2OC)CCCC3)cc1Br
16	N/C(=N\C(=S)Nc1ccc2c(c1)OCO2)c1ccccc1

Compound	9	10	11	12	13	14	15	16
PABP FP inh	-6	8	9	0	-3	.	-3	.
HIV Env fusion	6	.	-167	7	-35	-129	.	-390
MT1-MMP act inh	2	15	-1	1	0	-4	0	5
MT1-MMP act inh RFP	-1	1	-1	2	8	0	-1	-3
eIF4H inh	1	-7	-16	-7	3	.	1	.
Yeast UUG start	.	-9	-11	-10	-2	-13	-8	-33
Rce1 inhib	i	i	i	.	.	i	i	.
CSC inhib	-12	-10	-17	-1	14	.	5	.

17	CCCCn1c(C(C)NC(=O)COC)nc2ccccc21 (configuration not stated)
18	COCCSc1ccccc1C(=O)Nc1cc(C)ccn1
19	O=C(O)CC(C(=O)NC1CCCCC1)C1CCCO1 (configuration not stated)
20	COc1ccc(Nc2ccnc(Nc3ccc(OC)cc3)n2)cc1
21	Cc1cc2nc(C3CCN(C(=S)NCC(C)C)CC3)[nH]c2cc1C
22	c1ccc(CCCCNCC2COc3ccccc3O2)cc1 (configuration not stated)
23	CCCc1cc(=O)n2[nH]c(-c3cc(OC)c(OC)c(OC)c3)nc2n1
24	CCOC(=O)n1c(=O)n(Cc2c(Cl)cccc2Cl)c2ccccc21

Compound	17	18	19	20	21	22	23	24
PABP FP inh	18	4	-2	3	-14	-2	-1	4
HIV Env fusion	4	.	-11	?	2	2	.	.
MT1-MMP act inh	-5	2	-1	-8	-3	2	4	5
MT1-MMP act inh RFP	0	3	-1	-25	-8	5	-1	-8
eIF4H inh	0	2	-1	0	-1	-7	-5	-4
Yeast UUG start	-10	0	-15	.	.	.	-4	-8
Rce1 inhib	i	i	i	i	i	i	i	i
CSC inhib	-21	-6	-15	34	-3	10	-4	-3

25	COc1cccc(-c2cc(C(=O)N3CCN(c4ccccc4OC)CC3)no2)c1
26	Cc1cc(S(=O)(=O)N2CCOCC2)ccc1OCC(=O)NCc1ccco1
27	Cc1ccc(NC(=O)CSc2nccn2C)cc1F
28	CCOC(=O)c1c(C)n(C)c2cc(Br)c(C)cc12
29	O=S(=O)(NC1CC1)c1ccc(S(=O)(=O)N2CCN3CCCC3C2)cc1 (configuration not stated)
30	O=C(Cc1ccccc1)Nc1c(C(=O)N2CCCCCC2)cnn1-c1ccccc1
31	O=C(Nc1cccc(F)c1)C1CCCN(S(=O)(=O)c2cnc[nH]2)C1 (configuration not stated)
32	CC(C)Cn1c2c(c(O)c(C(=O)Nc3nccs3)c1=O)CCCC2

Compound	25	26	27	28	29	30	31	32
PABP FP inh	-1	7	-2	-10	7	6	5	-3
HIV Env fusion	1	-11	-21	-11	.	.	2	.
MT1-MMP act inh	-5	0	-4	-3	-2	-2	1	0
MT1-MMP act inh RFP	-4	-1	1	-1	4	-2	0	3
eIF4H inh	0	-5	-3	-7	-2	-8	-5	-7
Yeast UUG start	-7	-9	-12	-15	.	-18	-20	-28
Rce1 inhib	i	i	i	i	i	.	i	i
CSC inhib	13	.	-2	13	-16	0	-8	18

33	O=C(COC(=O)CN1C(=O)C2CCCCC2C1=O)NNC(=O)c1ccc(Cl)cc1 (configuration not stated)
34	CCOc1ccccc1N(CC(=O)NC1CCCCC1)S(=O)(=O)c1ccc(C)cc1
35	C#CCOCCOCCOCCNc1nc(N2CCN(C(=O)C([C@@H](C)CC)n3cc(C(N)CO)nn3)CC2)nc(N2CCN(C(=O)[C@H](CCC(=O)O)n3cc(C(N)[C@H](C)CC)nn3)CC2)n1 (some centres not stated)
36	Cc1ccccc1/C=C\c1nc2ccccc2c(=O)n1Cc1ccccc1
37	O=C(O)CCN1C(=O)C2C3C=CC(C3)C2C1=O (configuration not stated)
38	CCCC(=O)NC(=S)Nc1ccc(NC(=O)C(C)C)c(OC)c1
39	CCOC(=O)N1CCC(NC(=O)Cn2cccc2C(=O)c2ccccc2)CC1
40	COc1c(C)cc(Br)cc1C(=O)Nc1ccc(Cc2ccncc2)cc1

Compound	33	34	35	36	37	38	39	40
PABP FP inh	.	4	-4	1	-2	8	-9	-17
HIV Env fusion	-31	7	.	4	.	15	.	13
MT1-MMP act inh	-2	-3	.	-11	3	3	0	-4
MT1-MMP act inh RFP	2	-5	.	-10	7	0	-4	-20
eIF4H inh	.	0	2	13	-6	0	3	-1
Yeast UUG start	2	3	.	.	-9	-6	5	-16
Rce1 inhib	i	i	i	i	i	i	i	i
CSC inhib	-5	15	.	4	11	-5	-10	-1

41	CC1(C)Cc2ccccc2-c2nnc(SCC(=O)N3CCc4ccccc43)n21
42	O=C(NCCc1ccccc1)c1c[nH]c2ccccc2c1=O
43	COCCN(C(=O)COC(=O)c1oc2ccc(OC)cc2c1C)c1c(N)n(Cc2ccccc2)c(=O)[nH]c1=O
44	O=[N+]([O-])c1ccc(S(=O)(=O)N2CCN=C2SCc2cccnc2)cc1
45	Cc1cccc(NC(=O)c2cc(-c3cc(C)cc(C)c3O)n[nH]2)c1
46	CCCNC(=O)c1nn2cc(Br)cnc2c1Br
47	Cc1cc(C(=O)COC(=O)CNC(=O)c2ccc(Cl)c(Cl)c2)c(C)n1Cc1ccco1
48	CC(CCc1ccccc1)NC(=O)CNC(=O)COc1ccccc1 (configuration not stated)

Compound	41	42	43	44	45	46	47	48
PABP FP inh	-14	.	10	5	3	-2	-2	-8
HIV Env fusion	-3	-49	-25	8	15	7	-6	4
MT1-MMP act inh	-4	3	1	0	7	1	-3	-2
MT1-MMP act inh RFP	0	-4	2	-3	-5	4	-3	1
eIF4H inh	-6	.	-3	-15	6	4	26	-5
Yeast UUG start	-12	-8	1	.	-5	.	-6	.
Rce1 inhib	i	.	i	i	i	i	i	i
CSC inhib	4	.	0	.	76*	-5	-3	-2

49	COc1cc(S(=O)(=O)Nc2cc(C)cc(C)c2)ccc1F
50	C(=N\Nc1nc2ccccc2s1)/c1cccs1
51	N#CCSc1nnc(Cc2cccs2)n1C1CCCCC1
52	Cc1cc(/C=C(\C#N)C(=O)NCCc2c[nH]c3ccccc23)c(C)n1C
53	CC(=O)c1ccc2oc3ccccc3c(=O)c2c1
54	BrC(=C\c1ccccc1)/C=N/N1CCN(Cc2ccccc2)CC1
55	O=C(C[C@H]1C/C=C\C[C@@H](Cc2ccc(F)cc2)C(=O)O[C@H](c2ccccc2)CNC1=O)NCCO
56	COc1cccc(/C=C/C(=O)OCC(=O)NCCC2=CCCCC2)c1

Compound	49	50	51	52	53	54	55	56
PABP FP inh	9	-2	8	8	2	5	.	-6
HIV Env fusion	-6	.	-123	14	-43	.	12	-9
MT1-MMP act inh	1	-5	-10	3	0	-1	-1	1
MT1-MMP act inh RFP	-1	-4	-3	1	-1	1	4	4
eIF4H inh	-3	-1	3	45	-8	-8	.	-12
Yeast UUG start	.	-3	-22	.	-8	.	21	.
Rce1 inhib	i	i	i	i	i	i	.	i
CSC inhib	41	9	-9	13	-1	6	-9	2

57	O=c1c(Cc2ccc(F)cc2)c(O)ccn1CC1CCCO1 (configuration not stated)
58	NS(=O)(=O)c1ccc(CNC(=S)Nc2ccc(F)c(Cl)c2)cc1
59	O=C(CCC(=O)OCC(=O)c1ccc(Cl)cc1Cl)Nc1cccc2cccnc12
60	Cc1c(C)c2ccc(OC(C)C(=O)NCc3ccccn3)cc2oc1=O (configuration not stated)
61	O=C(Cc1coc2cc(O)ccc12)NNC(=O)c1cccs1
62	Cc1ccc(NC(=S)N/N=C2/CCCc3c(C)cc(C)cc32)cc1

Compound	57	58	59	60	61	62
PABP FP inh	-5	3	0	2	.	5
HIV Env fusion	-14	-10	-43	-14	.	-70
MT1-MMP act inh	-1	2	2	2	4	0
MT1-MMP act inh RFP	-5	-1	4	3	3	3
eIF4H inh	2	-1	-10	-5	.	2
Yeast UUG start	.	.	-3	-14	3	-16
Rce1 inhib	i	i	i	?	.	i
CSC inhib	-9	0	4	-14	-7	-8
